SARS PLpro yeast: qHTS of Yeast-based Assay for SARS-CoV PLP. S. cerevisiae expressing SARS-CoV PLpro, growth rescue; control for the full effect not named in the record. Potency, µM (top dose mostly 32.9 µM), for the others: at the top dose activity, positive = growth rescue. 330,000 compounds, 0.19% hits; active means well fitted rising curve with a large enough effect; inconclusive means small, poorly fitted or top-dose-only effect; inactive means no such curve, though single readings can be large or run the other way; note: 0% is about no effect; nearly all actives have a fitted effect of over 55% in size; growth read by luminescence after 48 h
MARV entry inh: qHTS for inhibitors of binding or entry into cells for Marburg Virus; Marburg virus pseudotyped entry inhibition, cell reporter; control for the full effect not named in the record; about a third of the inactives were read at about 46 µM; 300,000 compounds, 1.8% hits; Potency, µM (doses to about 37.8 µM), without a hit: top-dose activity change, negative = inhibition, most hits filed as inhibitors; active = well fitted inhibition curve with a large enough effect; inconclusive = small, poorly fitted or top-dose-only effect, or effect the other way; inactive = flat fitted curve, though single readings scatter; tested in HEK293 cells; about a fifth of its hits are not listed in these tables; note: % is set by controls: 0 for no effect and ±100 for the full control effect; luciferase read-out
Cruzain noTriton: qHTS Assay for Promiscuous and Specific Inhibitors of Cruzain (without detergent). Cruzipain (Trypanosoma cruzi), P25779. purified cruzain, Z-FR-AMC fluorescence, no detergent. Potency, µM, for inactives: max response, negative = inhibition, actives largely listed as inhibitors. 200,000 compounds, 2.3% hits;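 note: plate controls were enzyme without inhibitor for no effect and buffer without enzyme for full effect; nearly all actives have a fitted effect of over 40% in size; top concentration of the series not given in the record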
Target sequence (P25779 123-467 limits assumed): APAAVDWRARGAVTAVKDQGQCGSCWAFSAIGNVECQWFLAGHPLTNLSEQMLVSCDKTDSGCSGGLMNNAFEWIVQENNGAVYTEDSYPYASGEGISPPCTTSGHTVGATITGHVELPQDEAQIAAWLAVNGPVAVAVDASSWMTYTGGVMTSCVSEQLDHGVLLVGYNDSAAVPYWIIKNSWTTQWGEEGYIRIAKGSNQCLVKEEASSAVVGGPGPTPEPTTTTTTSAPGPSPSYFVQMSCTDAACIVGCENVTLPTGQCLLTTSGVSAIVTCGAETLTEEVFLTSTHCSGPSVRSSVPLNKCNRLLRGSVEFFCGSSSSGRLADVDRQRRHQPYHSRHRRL
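Purified cruzain at 1.5 nM, pre-incubated 15 min with compound at room temperature in 100 mM sodium acetate pH 5.5, 5 mM DTT, 0.00005% Triton X-100. Reaction started with 2 uM Z-FR-AMC; AMC fluorescence increase over 60 s gives rate.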
NS1 inh: qHTS Assay for Inhibitors of Influenza NS1 Protein Function; AID 2326, 2010; Potency, µM (titrated, usually from 46.1 µM), for inactives: top-dose activity, positive = more growth; S. cerevisiae slowed by influenza A NS1, growth recovery by OD600; 270,000 compounds, 0.4% hits; active means well fitted rising curve with a large enough effect; inconclusive means small, poorly fitted or top-dose-only effect; inactive means no such curve, though single readings can be large or run the other way; note: nearly all actives have a fitted effect of over 50% in size
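Growth recovery, yeast-based: influenza A NS1 expressed in S. cerevisiae causes slow growth, and suppressors are detected by OD600. The parent strain without NS1 is used as positive control.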
2A StopGo: High Throughput Screening for Foot and Mouth Disease Virus Antivirals. human cells with a luciferase reporter of 2A StopGo recoding; control for the full effect not named in the record. Potency, µM (doses to about 57.9 µM), for the others: at the top dose signal change, negative = less light. 410,000 compounds, 1.2% hits. AID 1159524, 2015; active = well fitted falling curve with a large enough effect; inconclusive = small, poorly fitted or top-dose-only effect; inactive = no such curve, though single readings can be large or run the other way; tested in HEK293T cells; note: % is set by controls: 0 for no effect and ±100 for the full control effect; nearly all actives have a fitted effect of over 45% in size; luciferase light after 4 h
RE007 growth inh: qHTS Assay for Inhibitors of the HIV-1 protein Vpr; S. pombe RE007 Vpr strain, BacTiter-Glo ATP luminescence, 24 h; control for the full effect not named in the record; Potency, µM (highest dose often 92.2 µM), for inactives: at the highest dose activity change, negative = less growth; 360,000 compounds, 0.21% hits; active = well fitted falling curve with a large enough effect; inconclusive = small, poorly fitted or top-dose-only effect; inactive = no such curve, though single readings can be large or run the other way;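 note: % is set by controls: 0 for no effect and ±100 for the full control effect; nearly all actives have a fitted effect of over 50% in size; the assay follows cell death caused by Vpr and the record does not say whether a fall means rescue or toxicity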
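Fission yeast strain RE007, carrying one chromosomally integrated HIV-1 vpr copy, was seeded at OD 0.01 in PMG+AL medium with 23 nL pinned compound. After 24 h at 30 °C and 99% humidity, viability was read by BacTiter-Glo luminescence.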
Lassa entry inh: qHTS for Inhibitors of binding or entry into cells for Lassa Virus; Lassa virus pseudotype entry inhibition, cell reporter; control for the full effect not named in the record; Potency, µM (highest dose often 37.9 µM), inactives show at the top dose activity change, negative = inhibition, most hits filed as inhibitors; 300,000 compounds, 1.2% hits; AID 540256, 2011; active means well fitted inhibition curve with a large enough effect; inconclusive means small, poorly fitted or top-dose-only effect, or effect the other way; inactive means flat fitted curve, though single readings scatter; tested in HEK293 cells; note: % is set by controls: 0 for no effect and ±100 for the full control effect; nearly all actives have a fitted effect of over 50% in size; luciferase read-out
Cruzain inh Det: qHTS Assay for Promiscuous and Specific Inhibitors of Cruzain (with detergent); purified cruzain, Z-FR-AMC fluorescence, 0.01% Triton; Cruzipain (Trypanosoma cruzi), P25779; Potency, µM, without a hit: max response, negative = inhibition, hits mostly inhibitors; 200,000 compounds, 0.43% hits;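 note: plate controls were neutral wells for no effect and buffer without enzyme for full effect; nearly all actives have a fitted effect of over 40% in size; top concentration of the series not given in the record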
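Enzyme 1.5 nM, Z-FR-AMC 2 uM, NaOAc 100 mM pH 5.5, DTT 5 mM, Triton X-100 0.01%; 15 min RT compound preincubation; kinetic ex360/em450, 60 s delta.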
The depositor's hits bear a star; ? = inconclusive; · = no result given; & = joins results of further samples; [ ] = another dose, or the depositor's remark. Unless noted, calls come from the whole dose curve; as a rule, active = well fitted curve in the direction sought with a large enough effect; inconclusive = small, poorly fitted or top-dose-only effect, or another doubt; inactive = no such curve, though single readings can be large; an effect the other way counts as inactive or inconclusive. Potency is the fitted concentration of half-maximal effect. Hits appear at their usual frequency; any-hit rate near 4.6%.

SMILES	SARS PLpro yeast	MARV entry inh	Cruzain noTriton	NS1 inh	2A StopGo	RE007 growth inh	Lassa entry inh	Cruzain inh Det
O=C1C2C3C=CC([C@@H]2C(=O)N1c1nccs1)C31CC1 (stereo partly drawn)	2%	-23%	1%	7%	-7%	6%	3%	-0.8%
O=C1C2CC=CCC2C(=O)N1Cc1nnc(-c2ccccc2Br)o1 (stereo not drawn)	-1%	4%[46.1 µM]	·	-7%	1%	-10%	14%	·
Cc1ccc(-c2nn(CC(=O)NC3CCCCC3)c3c2cnc2ccc(F)cc23)cc1C	·	·	7%	·	-3%	·	?	1.0%
CCc1ccccc1NC(=O)N1CCc2cc(OC)c(OC)cc2C1CC(=O)OC (stereo not drawn)	·	·	21%	·	0%	·	11%[46.1 µM]	-2.1%
COc1cc2ccc(=O)oc2c(O[C@@H]2O[C@H](CO)[C@@H](O)[C@H](O)[C@H]2O)c1O	-1%&-2%	-2%	·	4%	-3%&5%	5%&4%	·	·
Cc1ccccc1OC(=O)c1cccnc1	2%	·	·	4%	-9%	3%	·	·
CCOc1ccccc1C(O)C1=CC(=O)c2ccccc2C1=O (stereo not drawn)	·	9%	·	·	2%	-7%	1%	·
O=[N+]([O-])c1cccnc1Sc1ccccc1Cl	·	5%[46.1 µM]	·	·	-16%	4%	22%	·
CCN(CC)S(=O)(=O)c1cccc(C(=O)NCC2(N3CCOCC3)CCCCC2)c1	0%	-22%	·	·	-8%	-3%	-10%	·
CCOCCCNC(=O)c1cn2c3c(ccc(Cl)c3c1=O)OC(C)C2 (stereo not drawn)	1%	·	·	-2%	-20%	0%	·	·
Cn1nccc1C(=O)NC1CCCc2c1cnn2-c1cc(F)cc(F)c1 (stereo not drawn)	1%	·	·	-3%	-8%	12%	·	·
CCCCN1C(=O)CC(N2CCOCC2)C1=O (stereo not drawn)	22%	23%	5%	14%	-18%	18%	10%	7.8%
O=C(C(Cc1ccccc1)n1cccc1)N1CCN(c2cccc(Cl)c2)CC1 (stereo not drawn)	-21%	·	-4%	-10%	?	6%	·	-0.4%
CC(C)(C)c1ccc(-c2nnc(SCC(=O)Nc3sc4c(c3C#N)CCCC4)o2)cc1	-18%	?	?	24%	5%	20%	?	-4.7%
O=C(Cn1cc(C(F)(F)F)ccc1=O)Nc1ccc(N2CCOCC2)cc1	-9%	-5%[46.1 µM]	·	·	-5%	6%	-11%	·

Nothing new here: an excerpt of the list.
SMILES	SARS PLpro yeast	MARV entry inh	Cruzain noTriton	NS1 inh	2A StopGo	RE007 growth inh	Lassa entry inh	Cruzain inh Det
CC(C)(C)c1ccc(-c2nnc(SCC(=O)Nc3sc4c(c3C#N)CCCC4)o2)cc1	-18%	?	?	24%	5%	20%	?	-4.7%
O=C(Cn1cc(C(F)(F)F)ccc1=O)Nc1ccc(N2CCOCC2)cc1	-9%	-5%[46.1 µM]	·	·	-5%	6%	-11%	·

Additional records:
SMILES	SARS PLpro yeast	MARV entry inh	Cruzain noTriton	NS1 inh	2A StopGo	RE007 growth inh	Lassa entry inh	Cruzain inh Det
CC(C)(CO)Cc1cc(C(C)(C)C)c(O)c(C(C)(C)C)c1	·	?	14%&20%	-31%	-2%&-15%	27%[18.4 µM]	-24%	-8.5%&-4.9%
Cc1ccc2onc(CC(=O)N3CCN(c4ccccc4)CC3)c2c1	·	·	13%	·	-5%	·	-9%[46.1 µM]	-6.4%
Cc1ccc(Nc2c(-c3ccc(N4CCOCC4)cc3)nc3cnccn23)cc1	-7%	2%[46.1 µM]	·	4%	25%	1%	?	·
C=CCn1c(COc2ccc(F)cc2)nnc1SCC(=O)NC(=O)NCc1ccco1	-1%	-3%	4%	-2%	·	3%	16%	-2.0%
COc1cc(NC(=O)C/C(C)=N/NC(=O)C(=O)NCCO)c(OC)cc1Cl	2%	27%	·	-3%	-7%	?	?	·
CC(C)N(Cc1ccccc1)C(=O)COC(=O)c1c(F)cccc1F	-1%	-14%[46.1 µM]	·	·	-3%	-9%	0%[46.1 µM]	·
CC(C)(C)c1ccc(NC(=O)COC(=O)c2ccc3ncsc3c2)cc1	2%	·	·	·	-20%	11%	-20%	·
Cc1ccc(S(=O)(=O)NCc2ccco2)cc1C	-3%	16%	1%	7%	·	-12%	11%	0.4%
O=C(COc1ccc(Cl)cc1)Nc1nnc(-c2ccc3c(c2)CCCC3)o1	-23%	?	7.9µM*	-37%	40%[activator]	1%	21%	1.2%
CCc1nc(SCC(=O)Nc2nnc(CC(C)C)s2)n[nH]1	1%	6%[46.1 µM]	·	-4%	-13%	-4%	-2%[46.1 µM]	·
C[C@@]12CC(=O)NC1N(C(=O)c1cccc(C(F)(F)F)c1)C(c1ccccc1O)C2 (stereo partly drawn)	-1%	5%[46.1 µM]	0%	12%	1%	1%	4%	1.9%
N#Cc1c(NC(=O)CSc2nnnn2C2CCCCC2)sc2c1CCCC2	1%	?	-4%	-4%	0%	-10%	9%	-2.2%
Cc1nc2cc(-c3cccc(F)c3)nn2c(C)c1CCC(=O)NC(C)c1ccccc1 (stereo not drawn)	·	8%[46.1 µM]	4%	·	-25%	·	-7%[46.1 µM]	-1.9%
CCCC(=O)c1c[nH]c(C(=O)NCCc2ccccn2)c1	7%	?	1%	9%	15%	-1%	-8%	4.1%
CC1(C(=O)N/N=C/c2ccccc2)CC1(Br)Br (stereo not drawn)	-1%	3%	·	2%	0%	3%	5%	·
O=C(Nc1ccc(O)c(-c2nc3ccccc3o2)c1)c1ccc(-c2cccc(Cl)c2)o1	·	·	1%	·	-25%	·	0%[46.1 µM]	-1.6%
C/C(Cn1nnc([N+](=O)[O-])n1)=N\NC(=O)c1ccccc1Cl	11%	?	7%	?	-3%	-16%	-30%	6.4%
CC(=O)Nc1ccc(OCC(O)Cn2nc(C)c(C)c2C)cc1 (stereo not drawn)	1%	?	·	5%	-5%	0%	4%	·
Cc1sc(NC(=O)C2CSC3(C)CCC(=O)N23)nc1-c1ccc(F)cc1 (stereo not drawn)	-4%	?	·	1%	-13%	-4%	?	·
O=C(Cn1ccc2ccccc2c1=O)NCC(=O)Nc1ccc(F)cc1F	25%	-11%[46.1 µM]	·	?	-9%	-18%	-1%[46.1 µM]	·
Cc1ccc(CNC(=O)c2cc3c(-c4ccc(Cl)cc4)nn(C)c3s2)o1	-1%	·	-10%	-20%	0%	27%	·	-1.7%
C=CCC(C)(NCc1ccccc1)c1ccco1 (stereo not drawn)	-3%	23%	6%	-6%	-29%	-13%	28%	7.6%
Cc1cc(C)c(S(C)(=O)=O)c(Oc2ccc(F)cc2)n1	8%	-16%	-2%	2%	-19%	-8%	-4%	6.6%
COc1ccc(NC(=O)c2c(NCc3cccs3)sc3c2CCCC3)cc1	·	·	-2%	·	71%[activator]	·	-7%[46.1 µM]	-7.7%
CCOc1ncccc1C(=O)Nc1ccc(S(=O)(=O)N2CCCC2)cc1	-5%	2%[46.1 µM]	·	1%	23%	-2%	0%[46.1 µM]	·
O=C1CCCc2nc(NCc3ccco3)ncc21	17%	-3%	-5%	-14%	6%	-3%	2%	2.3%
O=C1NCCN1Cc1ccc(Cl)cc1	1%	-6%	·	·	-10%	-3%	0%	·
O=C(CCC(=O)Nc1ccc(F)cc1)N/N=C/c1ccc(O)cc1	1%	?	·	2%	-7%	-10%	30%	·
COc1ccc(S(=O)(=O)N(CC(=O)N2CCC(C)CC2)c2ccc(C)cc2)cc1	·	-5%[46.1 µM]	8%	·	58%[activator]	·	7.1µM*	-6.8%
CC12CC(=O)C3C(CCC4CC=CCC43C)C1CCC2=O (stereo not drawn)	·	?	·	·	-12%	24%	5%	·
O=C(Nc1cccc(-c2cn3ccsc3n2)c1)c1ccccc1	0%	26%	-3%	-102%	-9%	-9%	-5%	2.4%
O=C(Nc1sc2c(c1C(=O)Nc1ccccc1Cl)CCCC2)c1ccccc1F	·	6%[46.1 µM]	5%	·	27%	·	0%[46.1 µM]	-2.3%
O=C(c1ccc(F)cc1)c1cn(Cc2ccccc2)c2cc3c(cc2c1=O)OCO3	·	-8%[46.1 µM]	-8%	·	-18%	·	20%[46.1 µM]	-3.4%
CC(C)[C@@H](C(=O)OCC(=O)Nc1ccc2c(c1)OCO2)N1C(=O)c2ccccc2C1=O	4%	-3%	-5%	4%	?	-2%	4%	-4.7%
CCCN(CCC)CCCNC(=O)C1CCCN(Cc2nc(-c3ccc(Cl)cc3)oc2C)C1 (stereo not drawn)	·	?	8%	·	?	·	-27%[46.1 µM]	2.8%
O=C1NC(=O)/C(=C\c2ccccc2OCc2cccc([N+](=O)[O-])c2)N1	-17%	-4%	-3%	15%	?	10%	-3%	-1.9%
CC(C)n1cc(-c2ccc(Cl)cc2)cc(C#N)c1=O	-12%	0%	-5%	-52%	-7%	-13%	?	-6.0%
CC(C)=CCN1CCN(C/C(Cl)=C/c2ccccc2)CC1CCO (stereo not drawn)	0%	?	·	1%	-20%	-18%	-30%[46.1 µM]	·
O=Cc1ccc(OCc2ccc3ccccc3c2)cc1	1%	?	·	-17%	65%[activator]	1%	?	·
NS(=O)(=O)c1ccc(CNC(=S)Nc2ccc(Cl)c(Cl)c2)cc1	0%	?	·	·	-7%	-12%	13%[46.1 µM]	·
CC(C)Cc1nnc(NC(=O)CN2C(=O)NC3(CC(C)CC(C)(C)C3)C2=O)s1 (stereo not drawn)	1%	-10%	·	·	-24%	-2%	-7%	·
CCOC(=O)c1c(N)sc2c(OC)c(Br)ccc12	·	11%	-19%	-10%	32%[activator]	?	20%	-9.6%
CCOc1ccc(C2c3c(-c4ccccc4O)n[nH]c3C(=O)N2Cc2ccncc2)cc1 (stereo not drawn)	·	?	8%	·	-2%	·	?	-6.2%
Cc1coc2cc3oc(=O)c(CCC(=O)N[C@@H](CCCNC(N)=O)C(=O)O)c(C)c3cc12	0%	·	·	1%	-8%	6%	·	·
NS(=O)(=O)c1ccc(CNC(=O)c2ccncc2)cc1	0%	·	·	-2%	-18%	7%	·	·
